NOD2-RIPK2 inh – NOD2-RIPK2 protein interaction inhibition | AID 624267 | CHO BLA complementation NOD2-RIPK2, CCF4 ratio | inhibition, % at 4.98 µM | 360,000 tested, 0.38% active; in the data active means inhibition above about 21%;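 further: 0% = vehicle only and 100% = reference blocker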
ABHD5 PLIN5 PPI – blocks binding of human ABHD5 to perilipin-5 | inhibition, % at 4 µM | Q00G26+Q8WTS1 | AID 602281 | Split G. princeps luciferase complementation, luminescence, 4 h | 360,000 tested, 0.78% active;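 active means inhibition above the mean inhibition across every tested compound plus 3 SD, cut at about 22% in these data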;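 further: 0% = DMSO only wells and the 100% control is not disclosed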
ABCB6 inh MLPCN – inhibitors of human ABC transporter ABCB6; Q9NP58; K562-ABCB6 porphyrin accumulation, flow cytometry, 1 h; hits give low values; fluorescence ratio to DMSO, % at 10 µM; 360,000 tested, 0.19% active;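 active means fluorescence ratio to DMSO below 75%, the collection mean minus 3 SD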;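 further: signal is porphyrin accumulated inside mitochondria; 100% equals median channel fluorescence of DMSO control wells; lower ratio means ABCB6 inhibition with less porphyrin fluorescence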
H9c2 protect – modulators protecting cardiomyocytes from myocardial damage. H9c2 cardiomyocytes, H2O2 injury protection, ATPLite, 2 h. AID 588492. protection from H2O2 cell death, % at 20 µM. 360,000 tested, 0.63% active;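 active means compounds giving at least 50% protection of heart cells from peroxide-induced death in the single-dose screen, raw or plate-pattern-corrected value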;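 further: 0% = DMSO wells with peroxide and 100% = DMSO wells without peroxide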
TLR9-MyD88 inh – inhibitors of human TLR9-MyD88 binding; CHO BLA complementation TLR9-MyD88, CCF4 FRET ratio; inhibition, % at 4.98 µM; 340,000 tested, 0.21% active;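 active means inhibition above the mean over all tested compounds plus 3 SD, cut at about 21% in these data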;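 further: 0% = DMSO only wells and 100% = clavulanate BLA inhibitor control wells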
Target sequence (Q99836 whole entry, looked up): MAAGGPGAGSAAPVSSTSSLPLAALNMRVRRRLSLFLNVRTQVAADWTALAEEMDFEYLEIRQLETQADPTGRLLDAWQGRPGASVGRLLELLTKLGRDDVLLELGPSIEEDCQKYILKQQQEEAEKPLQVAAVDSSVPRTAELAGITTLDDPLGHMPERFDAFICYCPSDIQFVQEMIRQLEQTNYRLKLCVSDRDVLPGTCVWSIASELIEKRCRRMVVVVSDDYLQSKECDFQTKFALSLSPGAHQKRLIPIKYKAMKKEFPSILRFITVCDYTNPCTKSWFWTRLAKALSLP
Target sequence (Q9NR96 whole entry, looked up): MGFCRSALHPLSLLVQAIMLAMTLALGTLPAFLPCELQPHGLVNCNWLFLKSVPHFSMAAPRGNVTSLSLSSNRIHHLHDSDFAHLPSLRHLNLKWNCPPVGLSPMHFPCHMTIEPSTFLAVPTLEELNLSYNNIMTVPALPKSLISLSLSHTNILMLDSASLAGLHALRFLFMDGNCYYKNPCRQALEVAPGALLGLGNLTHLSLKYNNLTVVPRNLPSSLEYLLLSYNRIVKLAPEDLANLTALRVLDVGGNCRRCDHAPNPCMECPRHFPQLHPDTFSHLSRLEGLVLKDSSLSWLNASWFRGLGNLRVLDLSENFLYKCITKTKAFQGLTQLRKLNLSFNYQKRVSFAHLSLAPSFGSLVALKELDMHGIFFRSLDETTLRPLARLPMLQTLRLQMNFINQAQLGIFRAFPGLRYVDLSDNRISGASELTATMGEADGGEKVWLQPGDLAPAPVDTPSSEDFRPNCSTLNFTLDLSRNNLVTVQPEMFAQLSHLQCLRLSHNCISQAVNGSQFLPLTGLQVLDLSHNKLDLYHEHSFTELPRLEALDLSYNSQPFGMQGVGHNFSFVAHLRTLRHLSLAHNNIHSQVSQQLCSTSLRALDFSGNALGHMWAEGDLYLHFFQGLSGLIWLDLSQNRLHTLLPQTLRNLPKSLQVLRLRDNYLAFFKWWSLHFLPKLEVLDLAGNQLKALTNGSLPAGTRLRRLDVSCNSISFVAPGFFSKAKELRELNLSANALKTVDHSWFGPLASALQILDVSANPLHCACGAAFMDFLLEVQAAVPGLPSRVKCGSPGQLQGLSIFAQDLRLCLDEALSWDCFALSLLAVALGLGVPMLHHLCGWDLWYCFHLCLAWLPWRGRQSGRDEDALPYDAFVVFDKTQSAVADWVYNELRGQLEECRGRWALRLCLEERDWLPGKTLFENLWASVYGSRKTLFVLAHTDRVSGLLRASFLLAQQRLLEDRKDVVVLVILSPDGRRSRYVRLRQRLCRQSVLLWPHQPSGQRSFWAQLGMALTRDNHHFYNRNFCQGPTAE
Active calls of the source: *; & = joins results of further samples.

1: COC1=CC2C3Cc4ccc(OC)c(O)c4C2(CCN3C)CC1=O (configuration not stated)
2: ClCCOCCCl
3: CCN(CC)C(=O)c1ccc(NC(=O)Nc2ccccc2F)cc1
4: C[C@]12CCC3=C4CCC(=O)C=C4CC[C@H]3C1CC[C@@H]2O (some centres not stated)
5: CNC(=O)O/N=C(\N)Cc1csc2ccccc12
6: C[N+]1(C)CCOC(O)(c2ccc(-c3ccc(C4(O)C[N+](C)(C)CCO4)cc3)cc2)C1 (configuration not stated)
7: CN1CC[C@]23c4c5ccc(O)c4OC2C(O)C=CC3[C@H]1C5 (some centres not stated)
8: NCCc1c[nH]c2ccc(O)cc12
screen / no. | 1 | 2 | 3 | 4 | 5 | 6 | 7 | 8
NOD2-RIPK2 inh | -4 | -9 | 2 | 2 | 0 | -11 | -2 | -11
ABHD5 PLIN5 PPI | 3 | -1 | 7 | -2 | -8 | -6 | -6 | 3
ABCB6 inh MLPCN | 94 | 103 | 97 | 96 | 95 | 94 | 100 | 96
H9c2 protect | 9 | 6 | -22 | 5 | -5 | 9 | 3 | -4
TLR9-MyD88 inh | 1 | -8 | 5 | 0 | 0 | 4 | -11 | -13

Values by screen from above.
H9c2 protect, compounds 1–8, in order: 9, 6, -22, 5, -5, 9, 3, -4
NOD2-RIPK2 inh, compounds 1–8, in order: -4, -9, 2, 2, 0, -11, -2, -11
TLR9-MyD88 inh, compounds 1–8, in order: 1, -8, 5, 0, 0, 4, -11, -13

2 of these compounds in a different format.
Every second line gives: NOD2-RIPK2 inh, ABHD5 PLIN5 PPI, ABCB6 inh MLPCN, H9c2 protect, TLR9-MyD88 inh
(1) COC1=CC2C3Cc4ccc(OC)c(O)c4C2(CCN3C)CC1=O (configuration not stated)
    -4, 3, 94, 9, 1
(8) NCCc1c[nH]c2ccc(O)cc12
    -11, 3, 96, -4, -13

Continuation:
9: CNP1(NC)=Nc2nn(-c3ccccc3)c(N)c2C(c2ccccc2)=N1
10: O=C(CSC1c2ccccc2-c2ccccc21)N/N=C/c1ccccc1
11: C[C@]12CC[C@H](O)C[C@H]1CC[C@@H]1C2CC[C@]2(C)[C@@H](C3=CC(=O)OC3)[C@@H](O)C[C@]12O (some centres not stated)
12: CN1CCC[C@@H]1CCO[C@](C)(c1ccccc1)c1ccc(Cl)cc1
13: CC(C)c1ccc(OCC(=O)N2CCCN(C)CC2)cc1
14: COC(=O)C1=C(c2ccc(F)cc2OCc2ccccc2)C[C@@H]2CC[C@H]1N2C(=O)NCc1ccc(Cl)cc1
15: OCC#CC[N+]1(CC#Cc2ccccc2)CCCC1
16: CN(C)[C@@H]1C(=O)C(C(N)=O)=C(O)[C@@]2(O)C(=O)C3=C(O)c4c(O)cccc4[C@@](C)(O)C3C[C@@H]12 (some centres not stated)
screen / no. | 9 | 10 | 11 | 12 | 13 | 14 | 15 | 16
NOD2-RIPK2 inh | -2 | 3 | -3 | 15 | -7 | 3 | -5 | -2
ABHD5 PLIN5 PPI | -1 | 5 | -8 | 24* | -8 | -2 | 6 | 1
ABCB6 inh MLPCN | 100 | 95 | 94 | 97 | 96 | 92 | 98 | 110
H9c2 protect | 2 | -7 | 0 | 0 | 4 | 0 | -1 | 5
TLR9-MyD88 inh | 6 | -2 | -13 | -3 | -9 | -8 | 8 | 1

Complete entries as entered above.
Profile of CN(C)[C@@H]1C(=O)C(C(N)=O)=C(O)[C@@]2(O)C(=O)C3=C(O)c4c(O)cccc4[C@@](C)(O)C3C[C@@H]12 (some centres not stated) = NOD2-RIPK2 inh = -2; ABHD5 PLIN5 PPI = 1; ABCB6 inh MLPCN = 110; H9c2 protect = 5; TLR9-MyD88 inh = 1
Profile of O=C(CSC1c2ccccc2-c2ccccc21)N/N=C/c1ccccc1 = NOD2-RIPK2 inh = 3; ABHD5 PLIN5 PPI = 5; ABCB6 inh MLPCN = 95; H9c2 protect = -7; TLR9-MyD88 inh = -2

New compounds follow:
17: O=C(C1CC(=O)N(C2CCCC2)C1)N1CCC2(CC1)OCCO2 (configuration not stated)
18: COC(=O)C1=C(c2ccc(C(C)=O)cc2)C[C@@H]2CC[C@H]1N2C(=O)NCCNC(C)=O
19: CN(C)C(=O)Oc1cc(OC(=O)N(C)C)cc(C(O)CNC(C)(C)C)c1 (configuration not stated)
20: CC1CNCCN1c1ccc(Cl)cc1 (configuration not stated)
21: COC1C(O)C(C)OC(OC2CCC3(C=O)C(CCC4C3CCC3(C)C(C5=CC(=O)OC5)CCC43O)C2)C1O (configuration not stated)
screen / no. | 17 | 18 | 19 | 20 | 21
NOD2-RIPK2 inh | 6 | 7 | 1&-20 | 1 | 2
ABHD5 PLIN5 PPI | 2 | 4 | 0&5 | -8 | 2
ABCB6 inh MLPCN | 96 | 96 | 100&96 | 100 | 103
H9c2 protect | -5 | 10 | 12&3 | 0 | -1
TLR9-MyD88 inh | -9 | -2 | 1&8 | -12 | 1

An excerpt (hit frequency here may not be typical).
